# Screening results from PubChem BioAssay.
# Cruzain Triton = qHTS Assay for Promiscuous and Specific Inhibitors of Cruzain (with detergent); Cruzipain (Trypanosoma cruzi), P25779; purified cruzain, Z-FR-AMC fluorescence, 0.01% Triton; Potency, µM, for inactives: max response, negative = inhibition, actives largely listed as inhibitors; 200,000 tested, 0.43% active; AID 1478, 2009;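 also: plate controls were neutral wells for no effect and buffer without enzyme for full effect; nearly all actives have a fitted effect of over 40% in size; top concentration of the series not given in the record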
# Target sequence (P25779 123-467 limits assumed): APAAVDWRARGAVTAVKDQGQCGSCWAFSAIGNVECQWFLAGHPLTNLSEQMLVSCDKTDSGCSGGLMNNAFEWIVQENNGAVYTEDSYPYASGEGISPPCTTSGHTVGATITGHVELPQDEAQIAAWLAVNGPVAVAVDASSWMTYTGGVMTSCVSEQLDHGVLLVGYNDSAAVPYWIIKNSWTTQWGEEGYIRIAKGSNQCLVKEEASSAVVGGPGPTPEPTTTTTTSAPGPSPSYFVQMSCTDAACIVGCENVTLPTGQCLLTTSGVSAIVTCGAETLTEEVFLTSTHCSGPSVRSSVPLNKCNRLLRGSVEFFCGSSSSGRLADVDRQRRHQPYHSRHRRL
#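 Detergent-containing arm of a paired screen for aggregation-based inhibition: 0.01% Triton X-100 present. Cruzain at 1.5 nM cleaved 2 uM Z-FR-AMC at pH 5.5 with 5 mM DTT; AMC fluorescence gain over 60 s measured activity.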
# SARS PLP yeast = qHTS of Yeast-based Assay for SARS-CoV PLP. Potency, µM (doses to about 32.9 µM), without a hit: at the top dose activity, positive = growth rescue. S. cerevisiae expressing SARS-CoV PLpro, growth rescue; control for the full effect not named in the record. 330,000 tested, 0.19% active; active means well fitted rising curve with a large enough effect; inconclusive means small, poorly fitted or top-dose-only effect; inactive means no such curve, though single readings can be large or run the other way; also: 0% is about no effect; nearly all actives have a fitted effect of over 55% in size; growth read by luminescence after 48 h
# MARV entry inh = qHTS for inhibitors of binding or entry into cells for Marburg Virus; Marburg virus pseudotyped entry inhibition, cell reporter; control for the full effect not named in the record; about a third of the inactives were read at about 46 µM; Potency, µM (top dose mostly 37.8 µM), without a hit: at the top dose activity change, negative = inhibition, usual class: inhibitors; 300,000 tested, 1.8% active; AID 540276, 2011; active = well fitted inhibition curve with a large enough effect; inconclusive = small, poorly fitted or top-dose-only effect, or effect the other way; inactive = flat fitted curve, though single readings scatter; tested in HEK293 cells; about a fifth of its hits are not listed in these tables; also: % is scaled to controls: 0 for no effect and ±100 for the full control effect; luciferase read-out
# 2A StopGo = High Throughput Screening for Foot and Mouth Disease Virus Antivirals | human cells with a luciferase reporter of 2A StopGo recoding; control for the full effect not named in the record | Potency, µM (top dose mostly 57.9 µM), inactives show top-dose signal change, negative = less light | 410,000 tested, 1.2% active; active = well fitted falling curve with a large enough effect; inconclusive = small, poorly fitted or top-dose-only effect; inactive = no such curve, though single readings can be large or run the other way; tested in HEK293T cells; also: % is scaled to controls: 0 for no effect and ±100 for the full control effect; nearly all actives have a fitted effect of over 45% in size; luciferase light after 4 h
# Cruzain inh noDet = qHTS Assay for Promiscuous and Specific Inhibitors of Cruzain (without detergent); Cruzipain (Trypanosoma cruzi), P25779; purified cruzain, Z-FR-AMC fluorescence, no detergent; Potency, µM, for inactives: max response, negative = inhibition, actives largely listed as inhibitors; 200,000 tested, 2.3% active; AID 1476, 2009;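 also: plate controls were enzyme without inhibitor for no effect and buffer without enzyme for full effect; nearly all actives have a fitted effect of over 40% in size; top concentration of the series not given in the record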
#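 Purified cruzain at 1.5 nM, pre-incubated 15 min with compound at room temperature in 100 mM sodium acetate pH 5.5, 5 mM DTT, 0.00005% Triton X-100. Reaction started with 2 uM Z-FR-AMC; AMC fluorescence increase over 60 s gives rate.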
# NS1 inh = qHTS Assay for Inhibitors of Influenza NS1 Protein Function; S. cerevisiae slowed by influenza A NS1, growth recovery by OD600; Potency, µM (highest dose often 46.1 µM), without a hit: top-dose activity, positive = more growth; AID 2326, 2010; 270,000 tested, 0.4% active; active means well fitted rising curve with a large enough effect; inconclusive means small, poorly fitted or top-dose-only effect; inactive means no such curve, though single readings can be large or run the other way; also: nearly all actives have a fitted effect of over 50% in size
#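 In this qHTS, NS1 from influenza A is expressed in budding yeast, where it slows growth. Cells are switched from glucose to 2% galactose medium (pH 6.0, -URA), treated with compound, and growth recovery is read at OD600.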
# Lassa entry inh = qHTS for Inhibitors of binding or entry into cells for Lassa Virus; Lassa virus pseudotype entry inhibition, cell reporter; control for the full effect not named in the record; Potency, µM (series often up to 37.9 µM), without a hit: at the top dose activity change, negative = inhibition, most hits filed as inhibitors; 300,000 tested, 1.2% active; AID 540256, 2011; active means well fitted inhibition curve with a large enough effect; inconclusive means small, poorly fitted or top-dose-only effect, or effect the other way; inactive means flat fitted curve, though single readings scatter; tested in HEK293 cells; also: % is scaled to controls: 0 for no effect and ±100 for the full control effect; nearly all actives have a fitted effect of over 50% in size; luciferase read-out
# RE007 growth inh = qHTS Assay for Inhibitors of the HIV-1 protein Vpr. S. pombe RE007 Vpr strain, BacTiter-Glo ATP luminescence, 24 h; control for the full effect not named in the record. Potency, µM (highest dose often 92.2 µM), inactives show at the top dose activity change, negative = less growth. 360,000 tested, 0.21% active. AID 651644, 2012; active = well fitted falling curve with a large enough effect; inconclusive = small, poorly fitted or top-dose-only effect; inactive = no such curve, though single readings can be large or run the other way;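 also: % is scaled to controls: 0 for no effect and ±100 for the full control effect; nearly all actives have a fitted effect of over 50% in size; the assay follows cell death caused by Vpr and the record does not say whether a fall means rescue or toxicity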
#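 Fission yeast RE007 carrying one integrated HIV-1 vpr copy, seeded at OD 0.01 in PMG+AL medium with 23 nL pinned compound. Grown 24 h at 30 degrees; viability read by BacTiter-Glo luminescence after 5 min.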
# * = called active by the depositor; u = inconclusive; x = not tested or not shown; & = joins results of further samples; [ ] = another dose, or the depositor's remark. Unless noted, calls follow the shape of the dose curve; as a rule, active = well fitted curve in the direction sought with a large enough effect; inconclusive = small, poorly fitted or top-dose-only effect, or another doubt; inactive = no such curve, though single readings can be large; an effect the other way counts as inactive or inconclusive. Potency is read from the fitted curve at half-maximal effect.
SMILES,Cruzain Triton,SARS PLP yeast,MARV entry inh,2A StopGo,Cruzain inh noDet,NS1 inh,Lassa entry inh,RE007 growth inh
COCCn1c(-c2ccc(OC)cc2)nc2ccccc21,1.6%,-12%,u,23%,-4%,-57%,6%,-26%
O=C(Nc1ccc(F)cc1)c1ccccc1Oc1ccc(C(F)(F)F)cc1[N+](=O)[O-],-3.7%,-28%,u,-23%,8%,-34%,u,-6%
Brc1cc(Br)c(Oc2cc(Br)c(Br)cc2Br)cc1Br,2.3%,1%,-8%,-26%,-6%,x,x,19%
CNC(=O)CSCc1c(Cl)cccc1Cl,0.8%,0%,-21%,x,-8%,-3%,10%,4%
COc1ccc(C(=O)N2CCN(c3ncnc4c(-c5ccccc5)nsc34)CC2)cc1,0.5%,5%,-11%,u,0%,6%,-2%,-5%
Nc1[nH]n(-c2ccccc2)c(=O)c1N=Nc1ccccc1[N+](=O)[O-],-0.3%,-3%,u,34%[activator],u,-2%,0%,3%
CN1CCCN=C1/C=C/c1cccs1,x,u,-2%&-2%&-2%,-3%,x,5%,10%,-8%
COc1ccc(OC)c(N(CC(=O)NCc2ccccc2)S(=O)(=O)c2ccc(OC)c(OC)c2)c1,x,1%,1%[46.1 µM],-1%,x,u,-3%[46.1 µM],1%
CCC(C)NC(=O)CCc1c(C)nc2c(c(C)nn2-c2ccccc2)c1C (stereo unspecified),x,-1%,x,-21%,x,0%,x,14%
Cc1occc1C(=O)NCc1nc(-c2ccccc2)no1,x,-2%,-11%[46.1 µM],16%,x,-45%,x,16%
CC(C)(C)c1ccc(C(=O)NCC(c2cccs2)S(=O)(=O)c2ccc(F)cc2)cc1 (stereo unspecified),1.1%,x,x,20µM*,14%,x,u,x
COc1ccc(S(=O)(=O)Nc2c(C)c(C)cc3c2ncn3C)cc1,x,0%,u,0%,x,x,u,-21%
COc1ccc(NS(=O)(=O)c2cccc(C(=O)NNC(=O)CNC(=O)c3ccccc3)c2)cc1,x,-5%,8%,4%,x,4%,1%,2%
Cc1ccc(SCC(=O)Nc2nccs2)cc1,x,-2%,7%,37%[activator],x,-2%,3%,6%
CCOc1ccc(S(=O)(=O)N/N=C(\C)C2CCCCC2)cc1,-3.3%,1%,-4%,35%[activator],3%,18%,4%,3%
O=C(Oc1cc(-c2ccccc2)no1)c1cccc(C(F)(F)F)c1,1.6%,5%,18%,-11%,-1%,-2%,-2%,4%
CCCCN(C(=O)C1CC(=O)N(c2ccc3c(c2)OCCO3)C1)c1c(N)n(CC(C)C)c(=O)[nH]c1=O (stereo unspecified),x,3%,11%[46.1 µM],-4%,x,x,8%,-2%
COc1cccc(/C=N/NC(=O)CCn2cnc3ccccc32)c1,x,0%,-1%[46.1 µM],-16%,x,6%,-23%,-9%
CCOc1cc(C2C(C#N)=C(N)OC(C)=C2C(C)=O)cc(Br)c1O (stereo unspecified),-3.3%,0%,13%,x,-9%,-9%,0%,-5%
CCC(=O)N(CCC(Cc1ccccc1)c1ccc2c(c1)OCO2)Cc1ccccc1F (stereo unspecified),-1.5%,-6%,13µM*,u,5%,-35%,u,18%
COCCCNC(=O)c1cc(C(=O)Cc2ccccc2)c[nH]1,x,1%,-22%[46.1 µM],-4%,x,x,-13%[46.1 µM],-9%
Cc1sc2ncnc(Nc3ccc(O)cc3)c2c1C,x,-2%,-26%,-1%,x,1%,-17%,-15%
O=C(Nc1ccc2c(c1)OCCO2)c1cc(-c2ccccn2)nc2ccc(Br)cc12,x,0%,16%[46.1 µM],-19%,x,6%,10%,30%
C/C=C\C=C\C(=O)N1CC2(CC(c3cccc(NC(=O)CC(c4ccccc4)c4ccccc4)c3)=NO2)C[C@H]1C(N)=O (stereo partly specified),x,2%,x,-24%,x,15%,x,0%
Cc1ccc(S(=O)(=O)NCC(=O)NCC(=O)OCc2c(F)cccc2Cl)cc1,x,0%,17%[46.1 µM],-19%,x,7%,26%[46.1 µM],13%
Cc1ccc(OCc2cc(C(=O)N(C)Cc3cnn(-c4ccccc4C)c3)no2)cn1,x,-4%,u,0%,x,-35%,7.9µM*,0%
COc1cccc(C2=NN(C(C)=O)C(c3cccs3)C2)c1 (stereo unspecified),x,-1%,-11%,52%[activator],x,-6%,-2%,-4%
CCC(/C=N/NC(=O)CCCCC(=O)N/N=C/C(CC)CC)CC,-3.0%,18%,5%[46.1 µM],-11%,u,23%,-10%,5%
Cc1ccc(-c2[nH]nc(N)c2N=Nc2cccc(Cl)c2C)cc1,-2.6%,-38%,20µM*,u,u,20%,u,-30%
CCCOc1ccc(CSCCNC(=S)Nc2ccccc2)cc1,-10%,u,u,0%,-4%,-11%,u,-15%
C/C(CC(=O)Nc1cccc2c1CCCC2)=N\NC(=O)COc1ccccc1,-3.0%,17%,u,-12%,18%,8%,3%,-8%
CCOc1ccc(NC(=O)CN(C)C(=O)CCC2CCCCC2)cc1OCC,x,-3%,u,-29%,x,x,-2%,7%
COc1cccc(/C=C/C(=O)c2ccc[nH]2)c1,-5.1%,-23%,-21%,29%,-14%,-24%,u,u
CCOc1ccccc1OCCn1nnc2ccccc21,5.2%,-3%,10%,-11%,-3%,1%,8%,-1%
CCOC(=O)C(/C(N)=N/C(=O)Nc1ccccc1)=C(\C)O,-1.5%,-3%,u,7%,6%,-15%,12%,-2%
COc1ccc(CCNC(=O)C2CC(c3ccccc3C(F)(F)F)=NO2)cc1 (stereo unspecified),x,1%,x,3%,x,0%,x,-2%
Cc1c(Cl)cccc1NC(=O)CSc1nnnn1C,x,-1%,1%,-3%,x,x,11%,10%
O=C(c1ccc2c(c1)OCO2)N1CCC2(CC1)Oc1ccc(F)cc1C(=O)C21CC(c2ccccc2)=NO1 (stereo unspecified),x,0%,x,-14%,x,9%,x,6%
O=C(Cn1cncn1)NCCC(c1ccccc1)c1ccccc1,x,-2%,0%[46.1 µM],-1%,x,0%,-19%[46.1 µM],4%
Nc1nonc1C(=O)N/N=C/c1ccc(Br)o1,x,1%,3%[46.1 µM],42%[activator],x,-2%,2%,6%
COCCNC(=O)c1ccc2c(c1)NC(=O)C(CS(=O)(=O)Cc1ccc(F)cc1Cl)N2 (stereo unspecified),2.2%,x,x,-16%,-13%,x,29%[46.1 µM],x
O=C(O)CCCC(=O)Nc1nncs1,x,1%,x,-22%,x,9%,x,15%
Cc1ccc(CC(=O)NC2CCN(Cc3ccccc3)CC2)cc1,x,u,3%,-15%,x,-8%,-30%,-10%
Cc1cc(Nc2nn(C)c(N)c2C#N)ccc1F,x,-1%,x,20%,x,3%,x,5%
O=C(CN(C(=O)c1csnn1)c1ccc(F)c(Cl)c1)NCc1ccccc1,x,0%,u,-10%,x,7%,7%,-9%

# Quoted at random: 2 records from the list.
SMILES,Cruzain Triton,SARS PLP yeast,MARV entry inh,2A StopGo,Cruzain inh noDet,NS1 inh,Lassa entry inh,RE007 growth inh
O=C(CN(C(=O)c1csnn1)c1ccc(F)c(Cl)c1)NCc1ccccc1,x,0%,u,-10%,x,7%,7%,-9%
O=C(O)CCCC(=O)Nc1nncs1,x,1%,x,-22%,x,9%,x,15%

# Continued:
SMILES,Cruzain Triton,SARS PLP yeast,MARV entry inh,2A StopGo,Cruzain inh noDet,NS1 inh,Lassa entry inh,RE007 growth inh
Cc1c(C(=O)N2CCCCCC2)nnn1-c1nonc1N,2.2%,3%,2%,-9%,-8%,3%,0%,-1%
CS(=O)(=O)N(CC(=O)N1CCc2ccccc2C1)c1ccccc1Br,x,u,x,-5%,x,4%,x,2%
CCN1C(=O)N(CC)C(O)(c2ccccc2)C1(O)c1ccccc1 (stereo unspecified),5.5%,2%,26%,-17%,7%,-8%,8%,4%
Cc1ccc2c(c1)c(-c1csc(N)n1)c(C)n2C,x,11%,-12%,9%,x,6%,1%,-24%
CNc1oc(Cc2ccccc2)nc1S(=O)(=O)c1ccc(Cl)cc1,10µM*,3%,-1%,x,10µM*,-1%,u,-1%
CCOc1c2ccoc2nc2c(OC)c(OC)ccc12,x,-2%,x,38%[activator],x,-31%,x,-20%
CC(=O)c1c(C)nc(-c2ccccc2)nc1N,x,1%,x,15%,x,-2%,x,-2%
CCC(=O)c1ccc(OCC(O)CN2CCN(c3ccc(F)cc3)CC2)cc1 (stereo unspecified),1.0%,0%,12%,7%,-6%,19%,u,21%
CC(OC(=O)c1ccncc1)C(=O)Nc1cccc(Cl)c1 (stereo unspecified),0.4%,-8%,9%,-24%,-6%,-8%,3%,0%
COc1cc(OC)cc(N2CCN(S(=O)(=O)c3ccc(-n4cnnn4)cc3)CC2)c1,-1.6%,12%,11%&11%[46.1 µM],2%&-8%,-17%,-18%,4%[46.1 µM],-3%
Cc1ccc(NS(=O)(=O)c2c(C)[nH]c(C)c2C(=O)N2CCCCC2)c(Br)c1,x,14%,-27%[46.1 µM],34%[activator],x,2%,-5%[46.1 µM],8%
Cn1c(SCCOc2ccccc2F)nc2ccccc2c1=O,x,-3%,3.5µM*,40µM*,x,x,3%,19%
O=S(=O)(c1ccc(Cl)s1)N1CCC(Cc2ccccc2)CC1,-3.0%,-8%,-13%,u,-26%,-9%,23%,-11%
O=C(O)COc1ccccc1/C=N/NC(=O)c1cc(-c2ccc(Cl)cc2)nc2ccccc12,x,1%,3%[46.1 µM],-13%,x,6%,-25%,-14%
COc1cc2nc(SCC(=O)Nc3c(C)cc(C)cc3C)n3nc(CCn4c(C)nc5ccccc54)nc3c2cc1OC,-0.8%,x,-10%[46.1 µM],-3%,1%,x,-5%[46.1 µM],x
CC(OC(=O)c1cccc(Cl)c1)C(=O)NC1CCCCC1C (stereo unspecified),x,-1%,0%[46.1 µM],5%,x,9%,-8%[46.1 µM],-12%
COc1ccc(-c2c(C(F)(F)F)nn(C)c2NC(=O)CSCC(=O)O)cc1,x,1%,-18%,-3%,x,4%,-2%,-7%
